# KSHV LANA nucl: inhibitors of KSHV LANA binding to nucleosomes; FITC-LANA1-23 / chicken nucleosome fluorescence polarization; stronger effect = lower value; AID 720717; z-score (concentration not given with the values); 51,000 tested, 0.3% active;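 active = both repeat wells score below -2 in polarization z-score versus plate sample wells, excluding overly bright wells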;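 also: 100 nL library stock added to about 30 µL; numbers are from one replicate; some results filed as inactive read as strong as hits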
#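 Test system: purified chicken nucleosomes with FITC-labelled LANA N-terminal peptide (1-23); Input: 240 nM purified chicken nucleosomes (480 nM peptide binding sites), final; Medium: TEN-BT buffer, pH 7.5; Timing: 10–45 min, room temperature; Technique: fluorescence polarization, 480 nm excitation, 535 nm parallel and perpendicular emission; Replication: duplicates.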
# BasE inh: blocks the Acinetobacter baumannii siderophore enzyme BasE. purified BasE, fluorescence polarization binding displacement. inhibition, % (test concentration not listed). 84,000 tested, 0.1% active. AID 485350;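 active = both replicates above 25% with normal brightness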;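 also: 0% = negative plate control signal and 100% = positive plate control signal; stock transfer was 100 nL into about 30 µL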
# An asterisk follows results filed as active; x = no result given; & = joins results of further samples. An excerpt; the hit share may differ from the screen's.
SMILES,KSHV LANA nucl,BasE inh
CCCCSc1ncc(C(=O)OCC)c(N)n1,0.415,-0.2
O=C1C2CC=CCC2C(=O)N1c1ccccc1 (configuration not stated),0.37,2.9
O=C(NCCN1CCNC1=O)c1ccc2nccnc2c1,x,1.0
O=C(Cc1cccs1)NCC(c1ccco1)N1CCCCC1 (configuration not stated),x,-1.0
CC(C)OC(=O)c1c(F)c(F)c(F)c(F)c1F,0.776,1.5
O=C(CSc1ncn[nH]1)Nc1ccc(N2CCOCC2)cc1,-0.36,-1.8
NCCCSc1nc(C2CC2)n(-c2ccccc2)n1,x,1.3
CCC(c1nnc(SCC(=O)Nc2cc(C)on2)o1)N(C)C (configuration not stated),x,1.3
CCCc1ccno1,x,4.8
CNC(=O)c1cnc2sc(N3CCCC3)nn2c1=O,-0.256,-1.4
CN[C@@H]1C(OC2[C@H](O[C@H]3[C@H](O)[C@@H](O)[C@H](N=C(N)N)[C@@H](O)[C@@H]3N=C(N)N)OC(C)[C@]2(O)CO)OC(CO)C(O)C1O (some centres not stated),0.142&-1.25,-0.6
COc1cccc(NC(=O)C2CC(=O)N(Cc3ccco3)C2)c1 (configuration not stated),x,1.7
Cc1onc(-c2ccccc2Cl)c1C(=O)OC(c1ccccc1)C(F)(F)F (configuration not stated),x,1.2
COc1ccc(NC(=O)N2CCN(Cc3ccccc3Cl)CC2)cc1,1.44,-4.5
COc1ccccc1NC(=O)CN(Cc1ccco1)C(=O)Cn1nc(C(N)=O)c2ccccc2c1=O,x,2.4
CCOc1ccc(OCCOn2nnc3ccccc32)cc1,x,-1.0
FC(F)(F)Oc1ccc(-c2nnc(-c3ccccc3Cl)o2)cc1,-0.351,1.7
N#CSc1cnc(NC2CCCCC2)s1,-0.787,14.3
CC(C)CN(CC(C)C)C(=O)COc1ccccc1C(N)=O,x,-1.2
CCCN(CCC)c1nc(SC)nc(-c2ccccc2)c1C#N,-1.45,-1.7
CCCNC(=O)Nc1cc(S(=O)(=O)CC)ccc1O,x,0.9
COc1ccc(CCNC(=S)NC(=O)c2ccc(Cl)cc2Cl)cc1OC,x,0.9
CCc1ccccc1NC(=O)C1CCN(S(=O)(=O)c2cc(OC)ccc2OC)CC1,-0.591,-1.4
CCCc1cc(=O)[nH]c(SCC(=O)N2CCCC2=O)n1,x,0.2

# As a working copy, part of the list above.
SMILES,KSHV LANA nucl,BasE inh
CCC(c1nnc(SCC(=O)Nc2cc(C)on2)o1)N(C)C (configuration not stated),x,1.3
CCCc1ccno1,x,4.8
CNC(=O)c1cnc2sc(N3CCCC3)nn2c1=O,-0.256,-1.4
CN[C@@H]1C(OC2[C@H](O[C@H]3[C@H](O)[C@@H](O)[C@H](N=C(N)N)[C@@H](O)[C@@H]3N=C(N)N)OC(C)[C@]2(O)CO)OC(CO)C(O)C1O (some centres not stated),0.142&-1.25,-0.6
COc1cccc(NC(=O)C2CC(=O)N(Cc3ccco3)C2)c1 (configuration not stated),x,1.7
Cc1onc(-c2ccccc2Cl)c1C(=O)OC(c1ccccc1)C(F)(F)F (configuration not stated),x,1.2
COc1ccc(NC(=O)N2CCN(Cc3ccccc3Cl)CC2)cc1,1.44,-4.5
COc1ccccc1NC(=O)CN(Cc1ccco1)C(=O)Cn1nc(C(N)=O)c2ccccc2c1=O,x,2.4
CCOc1ccc(OCCOn2nnc3ccccc32)cc1,x,-1.0
FC(F)(F)Oc1ccc(-c2nnc(-c3ccccc3Cl)o2)cc1,-0.351,1.7
N#CSc1cnc(NC2CCCCC2)s1,-0.787,14.3
CC(C)CN(CC(C)C)C(=O)COc1ccccc1C(N)=O,x,-1.2
CCCN(CCC)c1nc(SC)nc(-c2ccccc2)c1C#N,-1.45,-1.7
CCCNC(=O)Nc1cc(S(=O)(=O)CC)ccc1O,x,0.9
COc1ccc(CCNC(=S)NC(=O)c2ccc(Cl)cc2Cl)cc1OC,x,0.9
CCc1ccccc1NC(=O)C1CCN(S(=O)(=O)c2cc(OC)ccc2OC)CC1,-0.591,-1.4
CCCc1cc(=O)[nH]c(SCC(=O)N2CCCC2=O)n1,x,0.2

# Carrying on:
SMILES,KSHV LANA nucl,BasE inh
Cc1cc(C)n(N)c(=O)c1C#N,x,1.9
CCCN1c2ccccc2S(=O)(=O)c2ccccc21,-0.055,-0.6
CC(C)(C)NC(=O)C1CC(=O)OC12CCCCC2 (configuration not stated),-0.582,-1.9
CCOc1ccc(OCCCN2CCN(C)CC2)cc1,2.25,-0.9
OCC(O)C1OC(Nc2ccc(Br)cc2)C(O)C1O (configuration not stated),0.454,0.7
CC(=O)N(c1ccc(N(C(C)=O)S(=O)(=O)c2cccs2)cc1)S(=O)(=O)c1cccs1,0.252,0.4
O=C(Cn1cnc2ccccc2c1=O)OCC(=O)c1c[nH]c2ccccc12,x,-9.9
COCCN1Cc2cccc(C(=O)Nc3ccc4nc(-c5cccnc5)[nH]c4c3)c2C1=O,-0.689,3.0
CCCC(=O)N=C1SC2CS(=O)(=O)CC2N1Cc1ccccc1 (configuration not stated),-0.975,2.1
O=C(NCc1ccccc1Cl)c1ccccc1,x,1.4
CC1C=CCC2C(=O)N(c3ccc(OC(=O)c4ccco4)cc3)C(=O)C12 (configuration not stated),-0.587,-0.9
CCOC(=O)CNc1n[nH]c(=O)[nH]c1=O,x,-0.2
Cc1nnc(NC(=O)CCCN2C(=O)/C(=C/c3cccs3)SC2=S)s1,0.19,0.2
Oc1c(C2=NCCNC(C(F)(F)F)=C2)ccc2ccccc12,0.573,0.1
O=C(COC(=O)c1ccc(Br)o1)NC12CC3CC(CC(C3)C1)C2,x,0.5
Cc1nn(-c2ccccc2)c2sc(C(=O)N(Cc3ccco3)C(C)C(=O)NC3CCCCC3)cc12 (configuration not stated),0.219,1.5
COc1ccc(CCNC(=O)CNCC2CCCO2)cc1OC (configuration not stated),-0.866,-0.1
COC(=O)c1cc(NC(=O)COc2ccc3c(c2)OCO3)cc(C(=O)OC)c1,x,1.5
O=C(Cc1ccc(S(=O)(=O)N2CCCCC2)cc1)Nc1cccnc1,x,3.2
CCc1cc(-c2[nH]ncc2-c2ccc(OC)cc2)c(O)cc1OC,0.429,1.1
O=C(O)c1ccc(NC(=O)C2C3C=CC(C3)C2C(=O)O)cc1 (configuration not stated),0.273,-1.1
CC(C)(C)NC(=O)Nc1c2ccccc2nc(=O)n1Cc1ccccc1,-0.659,0.8
Cc1cc(C2=NNC(=NCC3CCCO3)SC2)c(C)n1-c1ccc(OC(F)F)cc1 (configuration not stated),x,-0.9
Cc1cc2nc(-c3ccc(Cl)nc3)[nH]c2cc1C,0.667,x
COc1cc2c(cc1OC)CN(C(=O)CCc1ccccc1)CC2,x,2.4
COC(=O)c1ccc(S(=O)(=O)NCc2ccco2)o1,x,-3.4
CNCCC=C1c2ccccc2CCc2ccccc21,-0.832&-0.793&0.793,-1.6&-0.1
Cc1nc2c(n1C1CCCCC1)C(=O)c1ccccc1C2=O,x,-1.6
CC(C)CCN=CC1=C(O)CC(c2ccccc2)CC1=O (configuration not stated),x,-0.3
COc1ccc(N2CCN(C(CNS(=O)(=O)c3cccs3)c3cccnc3)CC2)cc1 (configuration not stated),-0.653,0.9
S=C(Nc1cccc(Cl)c1)Nc1cccc(Cl)c1,x,-5.9
CCN(c1ccccc1)S(=O)(=O)c1ccc(-n2cnc3cc(C)c(C)cc32)nc1,x,2.0
COc1ccc(Cn2ccc3nc(C)c(C(=O)NCc4ccccc4)cc3c2=O)cc1,-1.19,0.9
CCOc1ccc(CNc2ccc(N3CCCC3)cc2)cc1,x,0.4
Cc1onc(-c2ccccc2)c1C(=O)OCc1ccc(Cl)cc1,x,-0.2
O=C(NC1CCCCC1)N1CCn2cccc2C1Cc1ccccc1 (configuration not stated),1.85,-4.8
Cc1cccc(Cl)c1OCCN1CCN(C)CC1,x,2.7
CCCCCCCCCCC/C=C\C/C=C\CCCC(=O)O,-0.48,2.9
Cc1ccc(CNC(=S)NCCO)cc1,x,0.9
O=C(Nc1ccccc1)Nc1ccc(Cl)cc1SCc1ccccc1,x,-0.3
CC1(C)NC(=O)N(c2ccc([N+](=O)[O-])c(C(F)(F)F)c2)C1=O,0.945&-0.825&0.136,1.0&1.7
CCOC(=O)N1CCN(C(=O)c2ccc(CS(=O)(=O)c3ccccc3OC)o2)CC1,2.43,2.0
C=CCn1c(SCCC(=O)O)nnc1-c1cccs1,0.447,2.0
O=C(/C=C\Nc1ccccn1)c1ccc(Cl)cc1,-0.867,-4.2
O=c1cc(CO)oc(C(Nc2cccc(C(F)(F)F)c2)c2ccccn2)c1O (configuration not stated),0.228,-1.1
O=C(NCc1ccccn1)c1cccc(C(F)(F)F)c1,0.357,2.9
N#CCc1nn2c(C(F)(F)F)cc(C(F)(F)F)nc2c1C#N,0.0725,x
Cc1oc2c(CN(C)C)c(O)ccc2c(=O)c1Oc1ccc2ccccc2c1,0.314,-0.8
CC(C)(C)C(=O)COC(=O)c1cc(=O)c2ccccc2o1,x,-1.1
CCNc1ncnc2sc3c(c12)CCC3,-0.44,-0.4
CN1c2ccccc2C(C)(C)C12Cc1cc(NS(=O)(=O)c3ccc(Cl)cc3)ccc1O2 (configuration not stated),x,3.4
N#CCn1c(CSc2ccc3c(c2)OCCO3)nc2ccccc2c1=O,x,0.6
CC(C)Sc1nc(-c2ccccc2)cc(=O)[nH]1,1.31,-3.9
O=C1NC(c2ccccc2)C(C(=O)c2ccccc2)C(O)(C(F)(F)F)N1 (configuration not stated),x,0.0
CCOC(=O)Nc1cc(C(=O)OC)cc(C(=O)OC)c1,x,0.5
Cc1c(C)c(C)c(CSC(=S)N(C)C)c(C)c1C,x,0.9
Fc1ccc(C2=CSC3=NCCCN23)cc1F,x,1.3
CCCN1CCC(NC(=O)Nc2cc(Cl)ccc2OC)CC1,-0.111,-0.8
O=C(Nc1c2c(nc3ccccc13)CCCC2)c1ccccc1Cl,x,-2.5
COc1ccc(OCC(O)Cn2c(C(C)C)nc3ccccc32)cc1 (configuration not stated),0.648,-2.7

# (further entries)
SMILES,KSHV LANA nucl,BasE inh
CCN=c1scc(-c2ccc3c(c2)NC(=O)CO3)n1/N=C/c1cccs1,x,1.4
CCCCCN1COc2ccc3c4c(c(=O)oc3c2C1)CCC4,-1.2,-17.5
O=S1(=O)CCN(Cc2cccnc2)CC1,0.746,x
CC1CCCCN1C(=O)c1ccco1 (configuration not stated),x,-1.4
CC1CCc2c(sc3nc(CN4CCOCC4)nc(Sc4nccn4C)c23)C1 (configuration not stated),x,0.1
CC(C)(C)c1cc(C(F)(F)F)nc(SCCCNC(=O)c2ccco2)n1,0.29,-2.1
O=C(O)CC(c1ccc(Br)cc1)n1cccc1 (configuration not stated),-0.149,x
CCOC(=O)N1CCC(N(CCN(C)C)C(=S)Nc2cc(C)ccc2C)CC1,0.939,-2.1
O=C(CS(=O)(=O)c1cn(CC(=O)N2CCCC2)c2ccccc12)NCc1ccccc1,-0.913,1.8
S=C1NCN(CCCn2ccnc2)CN1,0.14,0.7
COc1ccc(/C=C2\CCc3ccccc3C2=O)cc1CN1CCOCC1,x,-1.6
O=C1CC(c2nc3ccccc3[nH]2)CN1c1cccc(C(F)(F)F)c1 (configuration not stated),x,-0.2
CC(=O)Cn1cnc2sc(-c3ccccc3)cc2c1=O,0.28,x
O=C(COC(=O)c1ccccc1SCC(=O)N1CCCC1)NCc1ccco1,x,-0.2
CCC1CCCCN1C(=O)CSc1nnc(-c2cccs2)o1 (configuration not stated),0.0045,0.2
COc1ccc(/C=C2/NC(=O)N(Cc3ccccc3F)C2=O)cc1,0.08,3.4
C=C1N(c2cccc(Cl)c2)C(=O)OC1(C)C,-1.15,1.3
O=C(COC(=O)c1c[nH]c(=O)[nH]c1=O)NCc1ccccc1,x,-1.9
CCOc1ccc(CCNC(=O)c2cccnc2N2CCCC2)cc1OCC,-0.307,6.9
CN(C)c1ccc(/C=N/N=C(N)N)cc1,-0.817,-0.3
O=S(=O)(Nc1ccc(N2CCCCC2)cc1)c1ccccc1,x,-0.9
COc1ccc(C)cc1NC(=O)N1CCC(C)CC1,-0.588,0.0
S=C(NCc1ccco1)Nc1nn(Cc2ccc(Cl)cc2Cl)cc1Cl,1.51,-5.2
CNC(=O)N(O)c1ccccc1,-0.11,-0.7
O=C(CSc1nc2ccccc2s1)c1ccc2c(c1)OCO2,x,-5.7
CCCCNc1nc2cccnc2s1,0.13,x
COc1ccc(NCC(=O)n2c3ccccc3c3ccccc32)cc1,x,-0.4
CC1=C(/C=C/C(C)=C/C=C/C(C)=C/C=C/C=C(C)/C=C/C=C(C)/C=C/C2=C(C)CCCC2(C)C)C(C)(C)CCC1,0.698,x
CN(C(=O)COC(=O)c1ccc(Cl)cc1O)C1CCS(=O)(=O)C1 (configuration not stated),x,0.8
COc1cccc(COC(=O)c2n[nH]c3ccccc23)c1,x,0.6
COC(=O)CCCN,x,1.9
COC(=O)c1ccc(CN(c2ccccc2OC)S(=O)(=O)c2cccs2)o1,x,-4.1
Cc1nn(C(=O)CCCC(=O)O)c2ccccc12,-0.0685,-0.6
CCOC(=O)c1cc2c(C)n(-c3ccccc3)c(C)c2cc(C(=O)OCC)c1=O,x,0.7
NC(=S)NN1C2CSC1CS2,x,-3.1
CCCc1cc(=O)n2c(-c3ccc(Cl)cc3)csc2n1,0.376,1.4
CC1CCN(S(=O)(=O)N2CCCC(C(=O)NCCCN3CCN(Cc4ccccc4)CC3)C2)CC1 (configuration not stated),-1.27,0.0
CCOC(=O)c1cnc2ccc(Cl)cc2c1Nc1ccc(S(=O)(=O)Nc2ncccn2)cc1,x,0.2
C#CCn1c(C2CC(=O)N(c3ccccc3Br)C2)nc2ccccc21 (configuration not stated),2.4,-1.6
COc1cccc(C2(c3ccc(O)cc3)CCCC2)c1,x,1.3
O=C(Nc1ccccc1)N(CC1CCCO1)C1CCS(=O)(=O)C1 (configuration not stated),0.824,1.7

# High-throughput results (PubChem BioAssay)
